HPGD inh = inhibitors of human 15-hydroxyprostaglandin dehydrogenase (HPGD). 150,000 tested, 4.3% active. Potency, µM, for inactives: at the highest dose activity change, negative = inhibition, most hits filed as inhibitors. purified HPGD, NADH fluorescence kinetic, PGE2 substrate. AID 894. P15428; active = well fitted inhibition curve with a large enough effect (not every such curve was filed as active); inconclusive = small, poorly fitted or top-dose-only effect, or another doubt; inactive = no such curve, though single readings can be large or run the other way;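 also: top concentration of the series not given in the record; plate controls included wells without enzyme; inactives centre near -10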
Target sequence (P15428 whole entry, looked up): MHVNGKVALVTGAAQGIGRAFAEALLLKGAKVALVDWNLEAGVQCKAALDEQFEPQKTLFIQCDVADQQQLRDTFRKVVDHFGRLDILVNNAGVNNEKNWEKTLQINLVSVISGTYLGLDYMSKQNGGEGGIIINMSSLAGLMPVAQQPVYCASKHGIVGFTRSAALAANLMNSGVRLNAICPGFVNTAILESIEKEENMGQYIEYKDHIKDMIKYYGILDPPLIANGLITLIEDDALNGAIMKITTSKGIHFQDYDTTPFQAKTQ
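NADH formation kinetics: reaction with 30 uM PGE2 and 1 mM NAD+ (final), 20 nM enzyme, Tris-HCl pH 8 with Tween 20, after 15 min compound preincubation at room temperature. Fluorescence change, last versus first of five reads.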
* = called active by the depositor; u = inconclusive. % is scaled to controls: 0 for no effect and ±100 for the full control effect; potency is read from the fitted curve at half-maximal effect. Only part of the results is shown. The share of hits here may be higher or lower than overall.

SMILES | HPGD inh
Cc1nn(-c2ccccc2)c2c1C1(C(=O)N(C)c3ccccc31)C(C#N)=C(N)O2 (centres undefined) | -0.9%
O=C(CSc1nc2c(cnn2-c2ccc(F)cc2)c(=O)[nH]1)N1CCCCCC1 | 15.8µM*
c1ccc2c(N3CCCCC3)nc(N3CCCCC3)nc2c1 | u
Cc1nn(Cc2ccccc2)c(Cl)c1C(=O)OCc1nnc(-c2ccc(Cl)cc2)o1 | -19.0%
O=C(c1cnccn1)N1CCC2(CC1)CCN(c1ncccn1)CC2 | -13.4%
CNc1ccccc1-n1ccc(-c2ccccc2)n1 | -19.3%
COc1ccc(NC(=S)N2CCC(N(C)CCN3CCOCC3)CC2)cc1 | -4.6%
CC1CCCCN1CCCNC(=O)c1ccc(-n2c(=O)c(=O)[nH]c3ccccc32)cc1 (centres undefined) | -12.5%
C=C(C)c1cccc(C(C)(C)NC(=O)N2CCN(c3ccccc3OC)CC2)c1 | -0.8%
Cn1c(=O)[nH]c(=O)c2c1nc(Br)n2CCCO | -10.3%
CCn1c(N2CCN(C(=O)NC3CCCCC3)CC2)nc2ccccc21 | -2.4%
Cc1cc(NC(=O)c2ccc3c(c2)OCCO3)no1 | -6.6%
c1ccc(CNCC2COc3ccccc3O2)cc1 (centres undefined) | -20.1%
COc1ccc(NC(=O)CSc2c3c(nc4cc(Cl)ccc24)CCCC3)cc1OC | -17.0%
CCn1c(=O)c(C(=O)NCc2ccc(OC)cc2)c(O)c2ccccc21 | -19.6%
CCOC(=O)c1sc(N)c(C#N)c1CSc1nnc(C2CCCCC2)n1N | -6.6%
O=C(NCc1ccco1)c1ccc2nc3sc4c(c3c(=O)n2c1)CCCC4 | u
Cc1cccc(NC(=O)NNC(=O)c2c(Cl)c(C)nn2C)c1 | -11.5%
Cc1ccc(C)c(NC(=O)CSc2nnc(CSc3nc(C)cc(C)n3)n2Cc2ccco2)c1 | -8.2%
CC(=O)Nc1c(O)nc(SCC(=O)Nc2cccc(C)c2)[nH]c1=O | -7.8%

Among those listed so far, three have a Cl atom:
SMILES | HPGD inh
Cc1nn(Cc2ccccc2)c(Cl)c1C(=O)OCc1nnc(-c2ccc(Cl)cc2)o1 | -19.0%
COc1ccc(NC(=O)CSc2c3c(nc4cc(Cl)ccc24)CCCC3)cc1OC | -17.0%
Cc1cccc(NC(=O)NNC(=O)c2c(Cl)c(C)nn2C)c1 | -11.5%

Next section
SMILES | HPGD inh
O=C(CCC1CCCC1)N1CCC(N2CCCCCC2)CC1 | 1.3%
Cc1ccccc1NC1=C/C(=N\S(=O)(=O)c2cccs2)c2ccccc2C1=O | -23.1%
Cc1cc(OCCCCCNCCO)ccc1Cl | -5.4%
CCC1=C2CC[C@H]3C(=O)N(c4ccccc4)C(=O)[C@H]3[C@H]2[C@@]2(C)C(=O)N(Cc3ccccc3)C(=O)N2C1=O | -11.5%
CCOC(=O)N1CCN(C(=O)CSCc2ccccc2C)CC1 | -10.1%
CCOC(=O)N1CCN(c2c(N3CCC(N4CCCCC4)CC3)c(=O)c2=O)CC1 | -2.2%
CCN(CC)CCNC(=O)Cn1cnc2sc(C)c(S(=O)(=O)N3CCOCC3)c2c1=O | -4.9%
O=C(CSc1nnc(CSc2nc3ccccc3s2)o1)NC1CCCCC1 | -9.4%
CN(C)/C=N/c1ncc(C(=O)c2ccccc2)s1 | -16.2%
Cc1ccccc1C(=O)NNC(=S)Nc1cccc(C(F)(F)F)c1 | -23.8%
Cc1sc2nc(CN(C(=O)c3cccs3)C3CCCC3)[nH]c(=O)c2c1C | -4.5%
CCOC(=O)NS(=O)(=O)c1ccc(CCNC(=O)c2cc(C)on2)cc1 | -16.0%
CC1(C)CC(=O)C2=C(C1)N(c1ccc(F)cc1)C(=O)CC2c1cccnc1 (centres undefined) | -9.5%
Cc1ccc2nc(NC(=O)CCn3c(=O)sc4ccccc43)sc2c1 | -16.1%
COc1cc2c(cc1OC)C(C)N(C(=O)c1cc3ccccc3o1)CC2 (centres undefined) | -7.3%
COc1ccc(OCC(=O)NC(=S)Nc2ccc(S(=O)(=O)Nc3cc(OC)nc(OC)n3)cc2)cc1 | -13.2%
O=C1OC(c2ccccc2)=NC12CC2c1ccc(Cl)cc1 (centres undefined) | 28.2µM*
NC(=O)c1cc(S(=O)(=O)Nc2cccc(F)c2)co1 | -8.9%
O=C(Cc1ccc(Cl)cc1)NNC(=O)c1cnccn1 | -9.1%
O=C(NC1CCN(Cc2ccccc2)CC1)C1CCCN(S(=O)(=O)c2cccc3nonc23)C1 (centres undefined) | -18.2%
CCOC(=O)c1cccc(NC(=O)CN(c2ccc(C)cc2)S(=O)(=O)c2c(C)n[nH]c2C)c1 | -10.9%
CC(=O)N1C(=O)N(C)C2C1N(C)C(=O)N2C(C)=O (centres undefined) | -1.5%
CCCC(=O)Nc1c(C(=O)OCC)[nH]c2ccccc12 | u
CCOc1ccccc1N1CCN(C(=O)/C=C/c2cccc([N+](=O)[O-])c2)CC1 | -3.0%
C[C@@H]1CNCCN1S(=O)(=O)c1cccc2cnccc12 | 1.5%
Cc1ccc(N2C(=O)c3ccccc3NC2C(C)Cc2ccc3c(c2)OCO3)cc1 (centres undefined) | u
CCN(CC)C(=S)SCC(=O)c1ccccc1 | -14.1%
CCCCC(=O)NC(=S)Nc1cccc(NC(=O)c2ccco2)c1 | -12.6%
O=C(NC(=S)NCC1CCCO1)c1ccc(Cl)cc1Cl (centres undefined) | -5.3%
O=S(=O)(c1ccccc1)N1CCC2(CCN(C(c3ccccc3)c3ccccc3)CC2)CC1 | 1.2%
CC(=O)C(Sc1nn(C)c(=S)s1)C(=O)Nc1ccccc1 (centres undefined) | u
O=C(O)CN1CCN(Cc2ccc(F)cc2Cl)C1=O | u
CN(C)c1nc(Nc2ccccc2)nc(N(C)C)n1 | -15.4%
O=C(CSc1cn(Cc2ccccc2)c2ccccc12)N1CCOCC1 | -0.3%
COc1ccccc1-c1noc(CCC(=O)Nc2cccc(C)c2)n1 | -8.7%
CC(=O)Nc1coc2ccc(Br)cc12 | -12.0%
COC(=O)c1c(NC(NC(=O)c2ccccc2)(C(F)(F)F)C(F)(F)F)sc2c1CCN(C)C2 | -12.5%
O=C(COC(=O)C1CC(=O)N(c2ccc3c(c2)OCCO3)C1)NC1CCCc2ccccc21 (centres undefined) | -10.9%
CCc1cccc(CC)c1NC(=S)NCC(c1cccnc1)N1CCOCC1 (centres undefined) | -0.6%
Cc1cc(NC(=O)c2ccco2)ncc1NC(=O)CCc1ccccc1 | -13.4%

HPGD inh, entries above that show a hit
SMILES | HPGD inh
O=C(CSc1nc2c(cnn2-c2ccc(F)cc2)c(=O)[nH]1)N1CCCCCC1 | 15.8µM*
O=C1OC(c2ccccc2)=NC12CC2c1ccc(Cl)cc1 (centres undefined) | 28.2µM*

Next part.
SMILES | HPGD inh
O=C(NCc1ccccc1Cl)c1ccccc1Oc1ccccc1 | -4.8%
CCN(CC)CCCC(C)n1c(-c2ccccc2)nc2c(NCCOC)nc(C)nc21 (centres undefined) | u
COc1ccc(-n2c(Cc3cccn3C)nnc2SCC(=O)Nc2ccccc2F)cc1 | 0.5%
Cc1cc(C)n(C(=O)CCCC(=O)n2nc(C)cc2C)n1 | -7.8%
COC(=O)c1ccc(NC(=O)CN2CCOCC2)cc1 | -14.6%
O=C(CCC(=O)OCC(=O)c1cccc([N+](=O)[O-])c1)Nc1cccc(Cl)c1Cl | -9.6%
COC(=O)CSc1nc(NCC(C)C)nc(N2CCOCC2)n1 | 5.4%
Cc1ccc(-c2csc(N(CCCN3CCOCC3)C(=O)c3ccco3)n2)cc1 | -21.6%
Cc1ccsc1/C=N/NC(=O)CSCc1ccc(Cl)cc1 | -15.0%
COc1ccc(-c2csc(-n3ncc(-c4cccs4)c3N)n2)cc1 | -6.2%
O=C1CN(/N=C\c2ccc([N+](=O)[O-])o2)C(=O)N1 | -19.7%
CCCn1c(Nc2nc3ccccc3n2C)nc2ccccc21 | u
COC(=O)CCCC1=CC2=CC(=O)C(C)(OC(=O)c3cccs3)C(=O)C2=CN1C1CCCCC1 (centres undefined) | -8.9%
O=C(O)CCCC(=O)Nc1ccccc1C(=O)N1CCCC1 | -2.6%
Cn1nnnc1SCCNCc1ccncc1 | -1.7%
Cc1cc(Cl)c(S(=O)(=O)N2CC(C)OC(C)C2)cc1OCC(N)=O (centres undefined) | 0.2%
Cc1[nH]nc(-c2ccc(OCc3cnn(-c4ccccc4)c3)cc2O)c1Oc1ccc(Cl)cc1 | -10.4%
COCCN1C(=O)c2ccccc2C(C(=O)NCCCN2CCCC2=O)C1c1c[nH]c2ccccc12 (centres undefined) | -14.0%
Cc1cc(N2CCOCC2)n2nc(C)c(-c3ccccc3)c2n1 | -19.5%
CC1CC(C(F)(F)F)n2ncnc2N1 (centres undefined) | 1.3%
O=C(CSc1ccccn1)N1CCOCC1 | -1.8%
CCOc1ccc(NC(=O)c2ccccc2OC)cc1 | -17.8%
Cc1ccc(NC(=O)C2CCN(S(=O)(=O)c3c(C)n[nH]c3C)CC2)nc1 | -6.8%
C(=N\Nc1nc(-c2ccccc2)cs1)/c1cccnc1 | -14.8%
O=c1[nH]c2cc3c(cc2cc1CN(CC1CCCO1)S(=O)(=O)c1ccccc1)OCCO3 (centres undefined) | -6.0%
CCOC(=O)C1C(=O)NC(N2CCCCC2)=NC1c1ccccc1 (centres undefined) | 2.6%
Cc1ccc(NCc2nnc(SCC(=O)N3CCCc4ccccc43)o2)c(C)c1 | -10.7%
Cc1ccsc1C1Nc2ccc3ncccc3c2C2=C1C(=O)CCC2 (centres undefined) | u
CN1CCN(c2ccc(Cl)cc2NC(=O)C2COc3ccccc3O2)CC1 (centres undefined) | -15.8%
CC1CCC(=C(C#N)C(=O)Nc2cccc(Cl)c2)CC1 (centres undefined) | -20.9%
Cc1ccc(-c2nc(NC(=O)c3ccc(S(=O)(=O)N(CCC#N)CCC#N)cc3)sc2-c2ccccc2)cc1 | -20.5%
C=CCNS(=O)(=O)CC12CCC(CC1=O)C2(C)C (centres undefined) | -9.4%
COc1nccnc1NS(=O)(=O)c1ccc(NC(=S)NC(=O)c2ccc(F)cc2)cc1 | -11.2%
COc1cccc(OC)c1NC(=O)C1CCCN1C(=O)NCc1ccccc1 (centres undefined) | -0.2%
N#Cc1cccc(NC(=O)N2CC3(CCN(C(=O)c4cnccn4)CC3)C2)c1 | -22.3%
COc1ccc(-c2oc3ncnc(NCCN4CCOCC4)c3c2-c2ccc(OC)cc2)cc1 | u
COC(=O)Cc1ccc(NC(=S)NNC(=O)c2ccccc2Br)cc1 | -11.4%
Cc1ccc(S(=O)(=O)CC2CSc3nc(N)cc(=O)n32)cc1 (centres undefined) | -14.9%
Cc1noc(C)c1C(=O)NCCc1ccccc1 | -2.5%
CCc1ccc2c(c1)cc(CN(C(=S)Nc1ccccc1)C1CC1)c1nnnn12 | -14.9%

Arranged by the number under HPGD inh (high to low): 7 of the compounds above
Structure	HPGD inh
Cc1noc(C)c1C(=O)NCCc1ccccc1	-2.5%
C=CCNS(=O)(=O)CC12CCC(CC1=O)C2(C)C (centres undefined)	-9.4%
C(=N\Nc1nc(-c2ccccc2)cs1)/c1cccnc1	-14.8%
CN1CCN(c2ccc(Cl)cc2NC(=O)C2COc3ccccc3O2)CC1 (centres undefined)	-15.8%
CCOc1ccc(NC(=O)c2ccccc2OC)cc1	-17.8%
CC1CCC(=C(C#N)C(=O)Nc2cccc(Cl)c2)CC1 (centres undefined)	-20.9%
N#Cc1cccc(NC(=O)N2CC3(CCN(C(=O)c4cnccn4)CC3)C2)c1	-22.3%

Next part
SMILES | HPGD inh
O=C(NC1CCCCC1)C12CC3CC(CC(Cl)(C3)C1)C2 | 0.6%
COc1ccc(-c2ccc(-c3nnn(CC(=O)N4CCOCC4)n3)cc2)cc1 | u
CNc1nc(N)c([N+](=O)[O-])c(NCCO)n1 | -8.0%
COc1ccccc1N1CCN(C(=O)C(Sc2ccccc2)c2ccccc2)CC1 (centres undefined) | -7.1%
CC1CCCN(C(C(=O)Nc2ccc3c(c2)OCCO3)c2ccccc2)C1 (centres undefined) | -19.6%
CCOC(=O)N1CCN(C(=O)CSCc2nc(-c3ccccc3C)oc2C)CC1 | -10.6%

Rewritten with values ahead of the structure: entries from further up
| HPGD inh | compound |
| --- | --- |
| -10.6% | CCOC(=O)N1CCN(C(=O)CSCc2nc(-c3ccccc3C)oc2C)CC1 |
| -8.0% | CNc1nc(N)c([N+](=O)[O-])c(NCCO)n1 |
| 0.6% | O=C(NC1CCCCC1)C12CC3CC(CC(Cl)(C3)C1)C2 |
